# Mtb betalactam: beta-lactam sensitization of Mtb H37Rv, H37Rv; M. tuberculosis H37Rv growth with meropenem, percent inhibition; hits of this screen are not shown here; inhibition, % at 25 µM; 0.27% of 330,000 active;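 active = about 74% or more and at least 40 points above the plate without the antibiotic, then above 30% in a dose series; inconclusive = first-round hits that could not be retested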;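 note: growth measured after seven days incubation then overnight dye step; 0% = bacteria only wells and 100% = bacteria with antibiotic; twin plates without the antibiotic show which effects depend on it; some results filed as inactive read as strong as hits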
# Mtb growth: M. tuberculosis H37Rv growth inhibitors, H37Rv strain (AID 1626); M. tuberculosis H37Rv growth inhibition; higher % means a stronger effect; inhibition, % at 10 µM; hits with a dose series show IC50 in µM; 0.95% of 220,000 active;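 active = confirmed in a dose series; inconclusive = inhibition above 80% but not taken into the dose series; inactive = below 80% or under 30% at every dose of the series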;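 note: bacteria incubated seven days before Alamar blue readout; 0% = bacteria only wells and 100% = bacteria with antibiotic wells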
# Arbovirus anti: antivirals against arbovirus infection, primary screen, cell-based, full library, 10K replicate subset | arbovirus infection cell-based antiviral screen | inhibition, % at 10 µM | 0.37% of 200,000 active;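 active = inhibition from about 30%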;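 note: bluetongue infection of BSR cells; cell survival read as ATP light after 72 h; 0% = infected wells without compound and 100% = uninfected wells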
# RecA splice inh: Mtb RecA intein splicing inhibitors, primary screen, biochemical, fluorescence, HTS; cell-free RecA intein splicing; inhibition, %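 (about 9 µM by stock and volumes)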; 0.75% of 290,000 active; AID 2221, 2009; in the data active = inhibition above about 30%; inconclusive = no clear call, values can overlap the other calls;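 note: 0% = vehicle wells and 100% = reference inhibitor control wells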
# Target sequence (P9WHJ3 whole entry, looked up, canonical isoform): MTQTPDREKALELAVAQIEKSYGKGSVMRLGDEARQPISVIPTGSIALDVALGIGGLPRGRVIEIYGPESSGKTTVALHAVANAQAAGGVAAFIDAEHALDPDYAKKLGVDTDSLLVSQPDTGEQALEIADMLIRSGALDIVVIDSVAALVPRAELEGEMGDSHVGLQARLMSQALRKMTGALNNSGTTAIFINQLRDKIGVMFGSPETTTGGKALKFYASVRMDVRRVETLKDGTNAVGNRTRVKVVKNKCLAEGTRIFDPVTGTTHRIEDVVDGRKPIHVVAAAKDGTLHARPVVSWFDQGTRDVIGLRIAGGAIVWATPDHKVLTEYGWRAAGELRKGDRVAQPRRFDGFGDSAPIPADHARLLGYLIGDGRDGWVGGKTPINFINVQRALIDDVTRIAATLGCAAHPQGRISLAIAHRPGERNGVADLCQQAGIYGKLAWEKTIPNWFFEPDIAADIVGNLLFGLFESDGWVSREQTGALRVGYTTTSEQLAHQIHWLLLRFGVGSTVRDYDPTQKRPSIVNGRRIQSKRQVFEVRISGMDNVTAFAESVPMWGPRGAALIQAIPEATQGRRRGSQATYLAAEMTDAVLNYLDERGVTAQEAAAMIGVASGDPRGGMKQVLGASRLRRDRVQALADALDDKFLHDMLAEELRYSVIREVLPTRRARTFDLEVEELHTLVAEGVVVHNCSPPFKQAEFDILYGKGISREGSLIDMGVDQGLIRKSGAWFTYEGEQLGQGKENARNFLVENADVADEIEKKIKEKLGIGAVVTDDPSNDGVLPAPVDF
# YopH PTP inh: YopH tyrosine phosphatase inhibitors, primary screen, biochemical, fluorescence Ex485/Em525; 0.16% of 140,000 active; AID 898, 2007; inhibition, %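 (about 10 µM by stock and volumes)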; YopH tyrosine phosphatase [Yersinia enterocolitica];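 active = inhibition of 50% or more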;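 note: controls were vehicle for no effect and minimum signal wells for full effect; inactives centre near -20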
# Arbovirus anti repeat: also measured in Arbovirus anti; calls as there; inhibition, %; measured here: 10K subset replicate screen; many hits read low in the repeat;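 first of two repeat runs on a subset; 0% = infected and 100% = uninfected wells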
# * = called active by the depositor; ? = inconclusive; / = no result given. A portion of the library (hit frequency here may not be typical).
SMILES,Mtb betalactam,Mtb growth,Arbovirus anti,RecA splice inh,YopH PTP inh,others
CC1(C)C2CCC1(CS(=O)(=O)Nc1ccc(S(=O)(=O)N3CCCC3)cc1)C(=O)C2 (configuration not stated),-1,1%,7,3.0,-17,
Cc1ccc2c(c1)CCCN2C(=O)c1ccoc1C,13,1%,-6,-1.9,-25,
COc1ccc(CN(C(=O)c2oc3cc(C)ccc3c2C)C2CCS(=O)(=O)C2)cc1OC (configuration not stated),0,/,/,4.7,/,
Cc1ccccc1NC(=O)CSc1ccc(-c2ccccn2)nn1,94,/,/,-2.0,/,
Brc1cccc(C2CC(c3ccccc3)n3nnnc3N2)c1 (configuration not stated),4,-9%,8,-3.8,12,
Cc1cc(OCCCC(=O)NNC(=O)c2ccncc2)ccc1Cl,98,/,/,3.1,/,
O=C(NCCSCc1ccccc1)c1ccc(F)cc1,1,-3%,9,-3.9,-11,
Cn1c(O)c(N=NC(=O)CNC(=O)c2ccco2)c2ccccc21,-10,-10%,-6,0.1,-38,
CCOC(=O)N1CCN(C2=C(NS(=O)(=O)c3ccc(C)cc3)C(=O)c3ccccc3C2=O)CC1,13,/,/,-0.7,/,
CCOc1ccccc1NC(=O)c1ccc2c(c1)C(=O)N(CC(C)C)C2=O,2,/,/,0.4,/,
O=C(CSCc1ccc(Cl)cc1)Nc1ccc(Br)cc1C(=O)O,-7,/,/,6.5,/,
Nc1nc(Nc2ccccc2F)nc(NCc2ccccc2)c1[N+](=O)[O-],33,12%,/,-0.8,/,
CC(CNS(=O)(=O)c1ccccc1)Sc1nncn1C (configuration not stated),-9,-5%,/,0.8,/,
CCCCC(=O)Nc1ccc(NC(=O)c2cccnc2)cn1,-10,1%,9,1.1,-21,
CCC(=O)Nc1cccc(C(=O)OC)c1,2,11%,/,-1.5,/,
O=C(C1CCN(c2nnnn2-c2ccccc2)CC1)N1CCN(c2ccccc2)CC1,2,-7%,-3,-1.0,-89,
Cc1ccc(-c2csc3ncnc(NCCC(=O)O)c23)cc1C,2,/,/,1.0,/,
CCN(CCn1cccn1)C(=O)C1CCC(=O)N(CC2CCCCC2)C1 (configuration not stated),-7,/,/,0.5,/,
O=C(N/N=C\c1ccc(Br)o1)C1COc2ccccc2O1 (configuration not stated),-11,0%,-9,0.2,/,
COc1cc(CCC(=O)OCC(=O)Nc2c(C)cccc2C(C)C)cc(OC)c1OC,-9,-3%,3,-0.5,-25,
NC(=O)c1sc2nc(N3CCCCC3)c3c(c2c1N)CCCC3,3,13%,11,-0.9,-20,Arbovirus anti repeat=18
CN(C)S(=O)(=O)c1cc(S(=O)(=O)N(C)C)c(Cl)cc1N,-3,-8%,13,0.6,-23,
Cc1ccc(C)c(N2CCN(CC(=O)Nc3ccc4[nH]c(=O)[nH]c4c3)CC2)c1,3,-1%,2,-0.6,-40,Arbovirus anti repeat=-4
Cc1cc(C)cc(NC(=O)C2CCN(c3nccs3)CC2)c1,28,10%,2,0.7,-44,
COc1ccc(CNC(=O)c2cc3cccc(OC)c3oc2=N)cc1,5,/,/,-0.4,/,

# Retrieved by structure from above:
SMILES,Mtb betalactam,Mtb growth,Arbovirus anti,RecA splice inh,YopH PTP inh,others
CN(C)S(=O)(=O)c1cc(S(=O)(=O)N(C)C)c(Cl)cc1N,-3,-8%,13,0.6,-23,
Cc1cc(OCCCC(=O)NNC(=O)c2ccncc2)ccc1Cl,98,/,/,3.1,/,
Cc1ccc(-c2csc3ncnc(NCCC(=O)O)c23)cc1C,2,/,/,1.0,/,

# Next compounds
SMILES,Mtb betalactam,Mtb growth,Arbovirus anti,RecA splice inh,YopH PTP inh,others
CCOc1cc(CNc2ccccc2SC)ccc1O,-8,2%,-2,3.5,-4,
CC(=O)Nc1sc(C)c(C)c1C(=O)Nc1ccc(C)cc1,11,7%,-2,-1.1,-17,
Fc1ccccc1CN1CCN(c2ccc(Cl)cc2)CC1,8,/,/,5.8,/,
Cn1cc(S(=O)(=O)N2CCCC2)cc1C(=O)NCc1ccc(F)cc1,6,/,/,-2.3,/,
Cc1cc(CNC(=O)CC2C(=O)NCCN2CC(c2ccccc2)c2ccccc2)on1 (configuration not stated),-11,2%,1,2.6,/,
CN(C)c1nc(N)nc(-c2nc3ccccc3s2)n1,9,-2%,-5,-1.1,-20,
CSCC[C@H](NC(=O)N1CCn2c1nc1ccccc12)C(=O)N1CCCCC1,9,/,/,-0.9,/,
CC(=O)Nc1cccc(NC(=O)CSc2nnnn2C(C)C)c1,-9,2%,2,-2.3,12,
COCCCNCCOCCOc1ccccc1-c1ccccc1,-1,-6%,-26,0.5,-13,
CC(C)OC(=O)c1ccc(N2CCN(c3ccc(F)cc3)CC2)nc1,13,/,/,0.2,/,
CCOC(=O)N1CCN(C(=S)Nc2ccc(C)cc2)CC1,8,-4%,8,-0.1,-38,
O=C(O)[C@H]1CCCN1C(=O)c1ccccc1N1C(=O)[C@@H]2Cc3c([nH]c4ccccc34)C(c3cccc(Cl)c3)N2C1=O (some centres not stated),-10,/,/,-2.3,/,
CCNC(=S)SCCOc1ccccc1C,5,8%,-13,-1.9,-14,
Cc1[nH]c2ccccc2c1CCNCc1cccnc1,-3,/,/,0.2,/,
CN(C)S(=O)(=O)c1cccc(C(=O)Nc2cc3c(cc2C(=O)O)OCCCO3)c1,1,/,/,-1.1,/,
COc1ccc(C2(C)NC(=O)N(CC(=O)Nc3ccc(C)cc3Br)C2=O)cc1OC (configuration not stated),5,/,/,-2.3,/,
Cn1c(=O)[nH]c(=O)c2c1nc(CN1CCN(c3ccccc3F)CC1)n2CC(N)=O,-3,0%,4,-0.1,-20,
O=C(CCN1CCN(c2ccccc2)CC1)Nc1ccccc1,4,/,/,0.5,/,
O=C(c1cc2ccccn2n1)N1CCC2(CC1)OCCO2,-5,0%,7,-2.7,-30,
Cc1cc(NC(=O)C(=O)NCCN2CCN(C(=O)c3cccs3)CC2)ccc1Br,-2,-2%,-1,0.7,-9,
O=S1(=O)CC(O)C(NCc2ccco2)C1 (configuration not stated),-4,-10%,5,-1.2,-28,
COc1cc(C(=O)NNC2=NC(C)(C)Cc3cc(C)c(C)cc32)cc(OC)c1OC,-3,-1%,-6,1.5,-28,
COc1ccc(-c2nc(N)ncc2-c2csc(C)n2)c(O)c1,5,-3%,2,0.0,-44,
COc1cc(/C=N/Nc2ccc(Cl)c(C(=O)O)c2)ccc1OC(=O)c1cccs1,-7,-3%,-1,/,/,
CCOC(=O)C1CCCCN1C(=O)CCn1nnnc1CN1CCOCC1 (configuration not stated),4,/,/,-3.2,/,

# (next part)
SMILES,Mtb betalactam,Mtb growth,Arbovirus anti,RecA splice inh,YopH PTP inh,others
O=C1c2ccccc2C(Nc2ccc(S(=O)(=O)N3CCCCCC3)cc2)N1c1ccccn1 (configuration not stated),-5,2%,-4,-0.7,-34,
CO/N=C/c1c(C(=O)OC)nn(-c2ccccc2)c1Cl,2,7%,-4,2.1,/,
CN(/N=C/c1ccc2c(c1)OCO2)c1ccccc1,57,2%,12,10,-25,
Cc1c(C(=O)N(Cc2cccc(Br)c2)C2CCS(=O)(=O)C2)oc2ccccc12 (configuration not stated),9,/,/,7.7,/,
C=CCOc1c(Br)cc(/C=C(\C#N)C(N)=O)cc1OC,-12,-3%,/,-0.1,/,
CC1=NN(C(=O)c2nn(C)cc2Br)C(O)(C(F)(F)F)C1 (configuration not stated),5,-7%,-19,-1.2,-27,
CCc1cc(=O)oc2c(C)c(OCC(=O)N3C[C@H]4C[C@@H](C3)c3cccc(=O)n3C4)ccc12,-8,/,/,-0.1,/,
CCOc1cccc(C(=O)NC(=S)Nc2cccc(C)c2)c1,-3,10%,5,-1.3,-8,
CCCCCCN(C(=O)CCCCCN1C(=O)NC(c2ccc(C(C)(C)C)cc2)C(C(=O)OCc2ccccc2)=C1C)C(C(=O)NCCCC)c1ccc(OCC(=O)OC)c(C(=O)OC)c1 (configuration not stated),/,17%,/,1.4,/,
Cc1cc(Nc2c(C)cccc2C)n2nc(C)nc2n1,3,-1%,0,-0.6,-55,Arbovirus anti repeat=-2
O=C(NCc1csc(-c2cccs2)n1)Nc1ccc(F)cc1F,-8,-2%,/,-0.6,/,
O=[N+]([O-])c1ccccc1OCC(O)CN1CCN(CC(O)COc2ccccc2[N+](=O)[O-])CC1 (configuration not stated),-7,/,/,-1.8,/,
CCc1ccc(N2CC(C(=O)Nc3nnc(CC)s3)CC2=O)cc1 (configuration not stated),-11,3%,11,0.4,-39,
CCN1C(=O)/C(=C2\C=Cc3cc(C)ccc3N2CC)OC1=S,1,-2%,1,1.0,-36,
Cc1cc(NC(=O)CSc2ncnc3ccccc23)no1,0,5%,-2,-0.3,-3,
CCCNC(=O)C1CC(c2ccc(C(F)(F)F)cc2)=NO1 (configuration not stated),7,-1%,/,2.1,/,
COc1ccc(S(=O)(=O)N2CCC(C(=O)Oc3cccc(C)c3)CC2)cc1OC,-9,/,/,2.9,/,
c1ccc(Nc2nc3ccccc3n3cnnc23)cc1,-8,4%,0,3.6,-20,Arbovirus anti repeat=-5
COC(=O)C1(C)NC(c2ccc(OC)cc2)C2C(=O)N(c3ccccc3)C(=O)C21 (configuration not stated),1,/,/,-2.9,/,
CC(=O)N1CCN(c2ccc([N+](=O)[O-])cc2)CC1,-5,7%,-4,0.9,/,
CCCNC(=O)CSc1nnc(-c2ccccc2Br)n1-c1cccc(C(F)(F)F)c1,9,8%,-2,8.2,-25,
Cc1ccc(C(=O)Nc2cccnc2Cl)cc1Cl,-5,/,/,-0.3,/,
O=C1CC(N2CCN(C/C=C/c3ccccc3)CC2)C(=O)N1CCc1ccccc1 (configuration not stated),-1,1%,7,-3.5,-41,Arbovirus anti repeat=8
Cc1cc(C)cc(OCC(O)CN2C(=O)NC(C)(C)C2=O)c1 (configuration not stated),-11,-18%,6,11,/,Arbovirus anti repeat=0
c1ccc(-n2cnc3cc(NCc4ccncc4)ccc32)cc1,90,47%,2,3.2,-40,

# Later entries.
SMILES,Mtb betalactam,Mtb growth,Arbovirus anti,RecA splice inh,YopH PTP inh,others
O=C(NC1CCN(Cc2ccccc2)CC1)C1CCN(S(=O)(=O)c2ccccc2)CC1,-12,/,/,0.9,/,
O=C1C(=O)N(Cc2cccnc2)C(c2cccc(Br)c2)/C1=C(/O)c1ccc2c(c1)OCO2 (configuration not stated),-8,/,/,0.2,/,
O=C(N/N=C/c1cccc(OC(=O)c2cccc(Br)c2)c1)c1ccncc1,99,/,/,4.3,/,
O=C(NC1CCCC1)c1cc(-c2ccc(Cl)cc2)on1,3,/,/,-1.4,/,
CSc1nnnn1-c1cccc(O)c1,8,2%,-3,-1.2,13,
Cc1ccccc1CS(=O)(=O)Cc1ccc(C(=O)NCCCN2CCCC2=O)o1,?,/,3,-2.6,-45,
CCOc1ccccc1N(CC(=O)NCCOC)C(=O)CCC(=O)Nc1ccccn1,4,-10%,-1,0.5,/,
Cc1nc(Cl)c(C#N)c2c1CCCC2,-3,0%,/,1.6,/,
CCCCCCSc1cccc(-c2nc3ccc(C)cn3c2NC2CCCCC2)c1,-5,/,/,1.6,/,
N#Cc1c(NC(=O)CCCC(=O)O)sc2c1CCCCC2,9,3%,7,0.9,-41,
COc1ccc(C2=C(Nc3ccccc3)c3ccccc3C2=O)cc1,68,-6%,2,-3.9,-15,
CCOc1ccc(NC(=O)c2ccc(F)cc2F)cc1,-11,-2%,/,-1.5,/,
O=c1c(Br)c(Br)cnn1-c1ccccc1,/,?,-33,/,/,
CC(=O)N1CCCc2cc(S(=O)(=O)N(CC(C)C)CC(C)C)ccc21,-8,6%,-6,5.2,-33,
Cc1cccc(C(=O)Nc2ccc(C(=O)N/N=C/c3ccc4c(c3)OCO4)cc2)c1,-3,/,/,-3.0,/,
Cc1ccc(NC(=O)c2ccc3c(c2)C(=O)N(CC2CCCO2)C3=O)cc1C (configuration not stated),-4,2%,0,0.4,/,

# By substructure, the compounds so far with a thiophene ring, fused or not
SMILES,Mtb betalactam,Mtb growth,Arbovirus anti,RecA splice inh,YopH PTP inh,others
Cc1ccc(-c2csc3ncnc(NCCC(=O)O)c23)cc1C,2,/,/,1.0,/,
NC(=O)c1sc2nc(N3CCCCC3)c3c(c2c1N)CCCC3,3,13%,11,-0.9,-20,Arbovirus anti repeat=18
CC(=O)Nc1sc(C)c(C)c1C(=O)Nc1ccc(C)cc1,11,7%,-2,-1.1,-17,
Cc1cc(NC(=O)C(=O)NCCN2CCN(C(=O)c3cccs3)CC2)ccc1Br,-2,-2%,-1,0.7,-9,
COc1cc(/C=N/Nc2ccc(Cl)c(C(=O)O)c2)ccc1OC(=O)c1cccs1,-7,-3%,-1,/,/,
O=C(NCc1csc(-c2cccs2)n1)Nc1ccc(F)cc1F,-8,-2%,/,-0.6,/,
N#Cc1c(NC(=O)CCCC(=O)O)sc2c1CCCCC2,9,3%,7,0.9,-41,

# Bioassay records from PubChem BioAssay.
